Assay outcomes: PubChem BioAssay, ICCB-Longwood Screening Facility, Harvard Medical School
Mtb MbtI inh = inhibitors of Mycobacterium tuberculosis siderophore enzyme MbtI; P9WFX0; purified MbtI enzyme, fluorescence intensity read-out; inhibition, %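 (about 17 µg/mL by stock and volumes)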; 100,000 tested, 0.89% active;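 active = above 50% in both replicates, above 80% if mildly self-fluorescent; inactive = the rest, strongly fluorescent compounds included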;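 also: 0% = mean of negative and 100% = mean of positive controls; one replicate is shown; some compounds called inactive have numbers as strong as hits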
Target sequence (P9WFX0 whole entry, looked up): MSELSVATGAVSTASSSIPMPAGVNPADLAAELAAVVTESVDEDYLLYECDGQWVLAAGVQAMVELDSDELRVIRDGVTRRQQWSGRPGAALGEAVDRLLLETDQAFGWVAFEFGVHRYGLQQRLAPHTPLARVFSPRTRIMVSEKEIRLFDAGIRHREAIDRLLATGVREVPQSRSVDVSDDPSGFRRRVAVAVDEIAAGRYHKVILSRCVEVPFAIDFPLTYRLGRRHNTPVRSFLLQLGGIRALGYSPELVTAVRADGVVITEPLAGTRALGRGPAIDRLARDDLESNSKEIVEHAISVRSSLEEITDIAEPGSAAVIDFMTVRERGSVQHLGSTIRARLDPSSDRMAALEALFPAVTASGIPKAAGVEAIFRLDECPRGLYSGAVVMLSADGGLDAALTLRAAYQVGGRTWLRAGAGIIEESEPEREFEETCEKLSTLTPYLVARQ
Polio RdRp inh = inhibitors of poliovirus RNA polymerase binding and polymerization | % elongation, % (compound at 16.7 µg/mL) | 150,000 tested, 0.66% active | AID 588519 | poliovirus polymerase elongation, fluorescence polarization; active compounds read low | P03300; in the data active = % elongation below about 90%; also: some results filed as inactive read as strong as hits
Mtb MenB inh = blocks the Mycobacterium tuberculosis MenB enzyme. P9WNP5. MenB enzyme assay, absorbance read-out; some hits fall short of the stated cut. inhibition, %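 (about 12 µg/mL by stock and volumes)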. 100,000 tested, 0.43% active. AID 540299;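 active = mean of two replicates above 30%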;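 also: 0% = no compound and 100% = wells with inactive enzyme; the first replicate is given; strong numbers were not always called active; inactives centre near -10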
Target sequence (P9WNP5 whole entry, looked up): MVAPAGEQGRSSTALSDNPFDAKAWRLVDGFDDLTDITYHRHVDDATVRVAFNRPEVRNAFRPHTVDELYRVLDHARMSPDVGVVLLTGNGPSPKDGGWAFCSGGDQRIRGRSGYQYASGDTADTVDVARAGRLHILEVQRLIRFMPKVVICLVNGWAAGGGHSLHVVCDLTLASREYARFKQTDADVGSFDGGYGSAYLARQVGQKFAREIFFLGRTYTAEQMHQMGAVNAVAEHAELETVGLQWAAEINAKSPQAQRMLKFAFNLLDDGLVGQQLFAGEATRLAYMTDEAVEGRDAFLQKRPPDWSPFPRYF
Polio RdRp inh intensity = recorded beside Polio RdRp inh, whose call it bears; % elongation; measured here: total intensity read-out; formula for this scale not given here;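 total fluorescence in place of polarization; lower means less elongation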
An asterisk follows results filed as active; . = no result given; & = joins results of further samples.

SMILES | Mtb MbtI inh | Polio RdRp inh | Polio RdRp inh intensity | Mtb MenB inh
CCCNS(=O)(=O)C1CCS(=O)(=O)C1 (stereo unspecified) | 12 | 103 | 103 | -5
NC1CCN(c2nc(-c3ccc(F)cc3)cs2)CC1 | -5 | 103 | 102 | -3
CC(=O)Nc1ccc(/C=N/NC(=O)c2ccccc2-n2cccc2)cc1 | 16 | 99 | 105 | -6
CCC(=O)N1C(C(=O)O)CSC12CCN(C)CC2 (stereo unspecified) | 0 | 100 | 99 | 18
CCN(CC(=O)Nc1cccc(OC)c1)C(=O)Cn1c(=O)cnc2ccccc21 | 13 | 104 | 103 | -8
CC(C)(C)NC(=O)C1CC2CCCC(C1)C2=O (stereo unspecified) | -15 | 104 | 107 | .
CS(=O)C1CCCCC1(O)CSc1nc(-c2cccs2)cc(-c2ccccc2)c1C#N (stereo unspecified) | -1 | 102 | 101 | -20
CCCC1=C(C(=O)OCC)C2(C(=O)N1)C(C(=O)OC(C)C)=C(N)Oc1ccccc12 (stereo unspecified) | -3 | 101 | 101 | -14
COC(=O)c1ccccc1NC(=S)NC(=O)/C=C/c1ccco1 | 3 | 99 | 111 | -11
O=C(NCc1ccco1)N(c1ccccc1)c1ccccc1 | 3 | 103 | 103 | 13
COC(=O)c1ccc(C2(C#N)C(=O)Nc3ccccc32)cc1 (stereo unspecified) | 3 | 102 | 102 | .
CCCc1cc(=O)n(CC(=O)NCc2ccccc2Cl)c(-n2nc(C)cc2C)n1 | 9 | 104 | 106 | -49
NC(Cc1ccc2nsnc2c1)C(=O)O (stereo unspecified) | 39 | 101 | 103 | 21
CC1(C)CC(NCc2ccccc2)=CC(=C(C#N)C#N)C1 | -4 | 103 | 105 | .
CC1SCC(NC(=O)c2ccccc2Cl)CS1 (stereo unspecified) | 1 | 100 | 104 | -2
CC(=O)Nc1nonc1Nc1cc(C)nn1-c1ccccc1 | . | 103 | 106 | -8
CC(=O)N1C(=O)C2(N=C(N)NC(Nc3cccc(C(F)(F)F)c3)=N2)c2ccccc21 (stereo unspecified) | 0 | 101 | 100 | 12
CC1CCCC(NC(=O)CCn2c(=O)oc3ccccc32)C1C (stereo unspecified) | 10 | 100 | 101 | 0
CCCc1ccc(Oc2ccc(NC(=O)C3CC3C(=O)O)cn2)c(OC)c1 (stereo unspecified) | -3 | 102 | 103 | -1
O=C(CCN1c2ccccc2Sc2ccccc21)OC1CCOC1=O (stereo unspecified) | -3 | 104 | 107 | -62

14 neighbouring records from above, for reference:
SMILES | Mtb MbtI inh | Polio RdRp inh | Polio RdRp inh intensity | Mtb MenB inh
CCCNS(=O)(=O)C1CCS(=O)(=O)C1 (stereo unspecified) | 12 | 103 | 103 | -5
NC1CCN(c2nc(-c3ccc(F)cc3)cs2)CC1 | -5 | 103 | 102 | -3
CC(=O)Nc1ccc(/C=N/NC(=O)c2ccccc2-n2cccc2)cc1 | 16 | 99 | 105 | -6
CCC(=O)N1C(C(=O)O)CSC12CCN(C)CC2 (stereo unspecified) | 0 | 100 | 99 | 18
CCN(CC(=O)Nc1cccc(OC)c1)C(=O)Cn1c(=O)cnc2ccccc21 | 13 | 104 | 103 | -8
CC(C)(C)NC(=O)C1CC2CCCC(C1)C2=O (stereo unspecified) | -15 | 104 | 107 | .
CS(=O)C1CCCCC1(O)CSc1nc(-c2cccs2)cc(-c2ccccc2)c1C#N (stereo unspecified) | -1 | 102 | 101 | -20
CCCC1=C(C(=O)OCC)C2(C(=O)N1)C(C(=O)OC(C)C)=C(N)Oc1ccccc12 (stereo unspecified) | -3 | 101 | 101 | -14
COC(=O)c1ccccc1NC(=S)NC(=O)/C=C/c1ccco1 | 3 | 99 | 111 | -11
O=C(NCc1ccco1)N(c1ccccc1)c1ccccc1 | 3 | 103 | 103 | 13
COC(=O)c1ccc(C2(C#N)C(=O)Nc3ccccc32)cc1 (stereo unspecified) | 3 | 102 | 102 | .
CCCc1cc(=O)n(CC(=O)NCc2ccccc2Cl)c(-n2nc(C)cc2C)n1 | 9 | 104 | 106 | -49
NC(Cc1ccc2nsnc2c1)C(=O)O (stereo unspecified) | 39 | 101 | 103 | 21
CC1(C)CC(NCc2ccccc2)=CC(=C(C#N)C#N)C1 | -4 | 103 | 105 | .

Other results follow.
SMILES | Mtb MbtI inh | Polio RdRp inh | Polio RdRp inh intensity | Mtb MenB inh
CCO/C=C1/C(=O)N(c2ccc(Cl)cn2)C(=O)c2ccccc21 | 91 | 85* | 90* | -17
O=S(=O)(Nc1ncnc2sccc12)c1cccc(F)c1 | 7 | . | . | 2
O=C(CC(c1ccccc1)c1cc(Br)ccc1O)N1CCCC1 (stereo unspecified) | -10 | 100 | 103 | -2
Cc1ccccc1OCC(=O)NC(c1ccccc1)c1c(O)ccc2ccccc12 (stereo unspecified) | 18 | 99 | 99 | -14
CC1CCN(c2nc(N3CCC(C)CC3)nc(N3CCC(C)CC3)n2)CC1 | . | 105 | 110 | -15
O=C(O)c1ccc(N2CCCS2(=O)=O)cc1 | -9 | 100 | 105 | 9
Cn1ccc(NC(=O)Nc2ccccc2)n1 | -2 | 108 | 109 | -1
Cc1[nH]n(-c2ccccc2)c(=O)c1C(=O)Nc1ccccc1 | 48 | 100 | 105 | .
CC(C)(C)C(=O)Nc1ccccc1C(=O)Nc1cccnc1 | 50 | 103 | 106 | -14
S=c1nc(SCCOc2ccccc2)[nH]c2ccccc12 | . | 104 | 106 | -22
COc1ccc(C(=O)CSc2ccc3nnc(-c4ccccn4)n3n2)cc1 | 14 | 103 | 105 | -6
CC(N/C=C1/CCCCC1=O)C1CC2CCC1C2 (stereo unspecified) | -4 | 104 | 106 | .
CC1SC(=S)NN1c1ccccc1 (stereo unspecified) | 88* | 98 | 99 | .
O=C(O)c1c(-c2ccccc2)c(-c2ccccc2)n[nH]c1=O | 3 | 100 | 103 | 7
CCn1c(SCC(=O)c2cc(C)n(-c3ncn[nH]3)c2C)nc2cc(S(N)(=O)=O)ccc21 | 15 | 93 | 99 | -27
COC(=O)C(C)Sc1nc2c(cnn2-c2ccccc2)c(=O)[nH]1 (stereo unspecified) | -4 | 103 | 101 | -29
CC1CCN(C(=O)c2cccc(Cl)c2)CC1 | -4 | 99 | 102 | 18
O=C(O)COc1ccccc1/C=c1\sc2nc3ccccc3n2c1=O | 14 | 98 | 102 | -19
CC1CCCCN1CC(O)COCc1ccccc1 (stereo unspecified) | -7 | 101 | 100 | .
Nc1cc(N)nc(SCc2ccccc2)n1 | . | 106 | 112 | -13
CCOC(=O)c1cccc(NC(=O)n2ncc3c(C)cccc32)c1 | -3 | 102 | 104 | 8
O=S1(=O)CCC(N2CCN(c3nc(C(F)(F)F)nc4ccccc34)CC2)C1 (stereo unspecified) | 1 | 102 | 102 | 3
CC1=CC(=O)C(CCOCCC2=CC(=O)C(C)=CC2=O)=CC1=O | 100* | 101 | 102 | -4
CC(NC(=O)c1ccncc1)c1ccncc1 (stereo unspecified) | -15 | 100 | 102 | 4
NC(=O)CSc1nc2cc3c(cc2c(=O)n1CCCC(=O)NCc1ccc2c(c1)OCO2)OCO3 | 14 | 101 | 99 | -2
COc1ccc(NC(=O)CN2C(=O)C(c3ccccc3)=NC23CCCC3)cc1 | -3 | 100 | 101 | -15
Cc1cc(C(C)(C)C)cc(S(=O)(=O)Nc2ccc(C(=O)N3CCC(C)CC3)cc2)c1C | -2 | 102 | 103 | -9
N#Cc1c(NC(=O)c2ccc3c(c2)OCO3)sc2c1CCC2 | -20 | 105 | 103 | -69
COC(=O)c1ccc(/C=N/NC(=S)NCc2ccco2)cc1 | 12 | 101 | 100 | -72
NS(=O)(=O)c1ccc(CCNS(=O)(=O)c2ccc3[nH]cc(C(=O)O)c(=O)c3c2)cc1 | 3 | 104 | 105 | -1
CCOC(=O)c1cnc2cccc[n+]2c1Cl | . | 107 | 109 | -15
O=C1CN(S(=O)(=O)c2ccc(-c3ccc(=O)[nH]n3)s2)c2ccccc2N1 | -22 | 102 | 105 | -11
COc1ccccc1CNC(=O)c1ccccc1SC | 59* | 103 | 101 | -34
CCn1c(N)c(C(=O)N2CCCCC2)sc1=S | 45 | 97 | 98 | -11
CCOC(=O)c1ccc2c(c1)[nH]c(=O)c(=O)n2CC | 6 | 101 | 106 | 5
O=C1C=C(NC2CCCC2)CC(c2ccccc2)C1 (stereo unspecified) | 13 | 101 | 105 | -20
Cc1nn(C(C)C(=O)NC2CCCCCC2)c(=O)c2cc3occc3n12 (stereo unspecified) | 10 | 103 | 104 | -1
Oc1ccccc1-c1nnc2n1CCC2 | 3 | 104 | 110 | .
O=C(CCCSc1nnc(-c2cccs2)n1Cc1ccccc1)N1CCOCC1 | 101 | 101 | 98 | -8
O=C1CCCc2c1cnn2-c1ccccc1 | -4 | 101 | 102 | -5
CCN(CC)C(C)C#Cc1ccccc1 (stereo unspecified) | -12 | 100 | 101 | 5
O=c1c(O)c(-c2ccc(O)cc2O)oc2cc(O)cc(O)c12 | -16 | 105 | 105 | -8
C=CCN1C(=O)/C(=C\c2ccc(C(=O)O)cc2)S/C1=N\c1nnc(CC)s1 | . | 100 | 107 | -15
CN1/C(=C\C=N\NC(=O)C2COc3ccccc3O2)C(C)(C)c2ccccc21 (stereo unspecified) | 5 | 102 | 106 | -221
N#Cc1c2c(c(Nc3ccc(O)cc3)n3c1nc1ccccc13)CCC2 | -7 | 94 | 100 | -52
CC(C)c1ccccc1NC(=O)COC(=O)c1cc(Cl)cc(Cl)c1 | -5 | 100 | 105 | .
Cc1ccc(SC(=O)c2ccco2)cc1 | 5 | 98 | 102 | -1
O=C(NCCC1=CCCCC1)C(c1ccccc1)c1ccccc1 | . | 111 | 118 | -20
c1ccc(CNc2nc3ccccc3[nH]2)cc1 | -15 | 100 | 97 | -79
Oc1cccc(/C=N/N=C/c2cccc(O)c2O)c1O | -81 | 101 | 102 | -52
CSc1nc2[nH]ncc2c(=O)[nH]1 | 5 | 100 | 106 | 14
CC1CCN(CC(=O)Nc2ccc3c(c2)OCO3)CC1 | -8 | 103 | 107 | 0
O=C(CCCc1ccccc1)Nc1scc2c(=O)oc3ccccc3c12 | . | 79* | 82* | 8
CN1CCCN(C(=O)c2ccc(F)c(S(=O)(=O)N3CCOCC3)c2)c2nc3ccccc3nc21 | 7 | 103 | 106 | -3
CCC(C)N(C(=O)c1cc(Cl)ccc1OC)C(C)CC (stereo unspecified) | 1 | 100 | 102 | -24
O=C(COc1ccccc1)N1CCN=C1c1ccccc1 | 1 | 101 | 105 | -13
CC(C)n1c(SCCC(=O)O)nc2ccccc21 | 3 | 99 | 103 | -4
COc1ccccc1N(CCC#N)C(=O)c1cncc(Br)c1 | -7 | 104 | 106 | .
Cc1[nH]n(-c2ccccc2)c(=O)c1C1=NCCCCC1 | -4 | 105 | 105 | -11
N#C/C(=C\C=C\c1ccccc1)C(=O)N1CCCC1 | 15 | 102 | 97 | -30

The results go on.
SMILES | Mtb MbtI inh | Polio RdRp inh | Polio RdRp inh intensity | Mtb MenB inh
CCc1cc2c3c([nH]c2cc1S(=O)(=O)NC(C)(C)C)CCCC3=O | -4 | 100 | 102 | -40
CC(C)N(C(=O)CSc1ncn[nH]1)c1ccccc1 | -8 | 101 | 112 | .
Cn1c(/C=N/O)nc2ccccc21 | . | 102 | 102 | -8
O=C(O)C1CCCCN1S(=O)(=O)c1cccc2nsnc12 (stereo unspecified) | 10&1 | 101&101 | 100&97 | -2&13
Nc1ccc(C(=O)N2CCCCC2)cc1 | . | 108 | 116 | 4
CCOC(=O)c1c(-c2ccccc2)csc1NC(C)=O | 1 | 103 | 104 | .
CC(C)N(Cc1nc(-c2ccccc2)no1)C(=O)CCc1ccccc1 | -13 | 102 | 102 | -10
COCCn1c(SCc2csc(N(C(C)=O)c3ccccc3)n2)nc2ccccc21 | -5 | . | . | -13
CC1CCCCN1C(=O)COC(=O)c1ccc(N2CCCC2=O)cc1 (stereo unspecified) | 2 | 101 | 104 | -3
COc1ccc(C(=O)C(O)c2ccc(OC)cc2)cc1 (stereo unspecified) | . | 104 | 108 | -15
CCN(CC)CCC(O)(c1ccccc1)C1CCCCC1 (stereo unspecified) | . | 107 | 114 | -6
COc1ccc2nc(NC(=O)C(C)C)sc2c1 | 15 | 99 | 98 | .
CCN(CC)CCNCc1cc(C)n(-c2cc(C)on2)c1C | -3 | 105 | 104 | 6
CNC(=S)N/N=C(\C)c1ccc(N2CCOCC2)cc1 | 16 | 106 | 120 | -7
COc1ccc(-c2csc3nc(C)cc(C)[n+]23)cc1 | -8 | 100 | 106 | .
O=C(COc1ncnc2c(Cl)cc(Cl)cc12)NCCCN1CCCC1=O | -7 | 100 | 107 | 6
CCOC(=O)c1c(C)c(C(=O)C(F)(F)F)c2ccccn12 | -9 | 104 | 101 | -166
COC(=O)C1(C(=O)OC)Sc2ccccc2C1=O | 28 | 101 | 99 | -15
Nc1ncnc2nc(SCc3ccc(Cl)cc3Cl)[nH]c12 | 65 | 102 | 104 | 7
Cc1cc(Cl)ccc1NCC(=O)N/N=C/c1ccc2c(c1)OCO2 | 2 | 100 | 101 | 17
O=C(NC1CCCCC1)N1CCn2cccc2C1c1cccnc1 (stereo unspecified) | -4 | 105 | 103 | -4
O=C(Nc1nc(-c2ccc(Cl)cc2)cs1)C1c2ccccc2Oc2ccccc21 | 40 | 105 | 106 | -41
COc1ccc(S(=O)(=O)N2CCN(C(=S)NCC3CCCO3)CC2)cc1OC (stereo unspecified) | -1 | 102 | 103 | -3
COc1cc2c(cc1NC(=O)C(C)Sc1nc3ccccc3c(=O)[nH]1)oc1ccccc12 (stereo unspecified) | 0 | 101 | 96 | -18
